Mtb growth: M. tuberculosis H37Rv growth inhibitors, H37Rv strain (AID 1626). one-dose inhibition, % at 10 µM; IC50 in µM for titrated hits. 220,000 tested, 0.95% active. M. tuberculosis H37Rv growth inhibition; higher % means a stronger effect;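 active = confirmed in a dose series; inconclusive = inhibition above 80% but not taken into the dose series; inactive = below 80% or under 30% at every dose of the series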;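 note: bacteria incubated seven days before Alamar blue readout; 0% = bacteria only wells and 100% = bacteria with antibiotic wells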
Arbovirus anti: blocks arbovirus infection. arbovirus infection cell-based antiviral screen. inhibition, % at 10 µM. 200,000 tested, 0.37% active;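 active = inhibition from about 30%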;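 note: bluetongue infection of BSR cells; cell survival read as ATP light after 72 h; 0% = infected wells without compound and 100% = uninfected wells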
RecA splice inh: inhibitors of M. tuberculosis RecA intein splicing. cell-free RecA intein splicing, fluorescence. inhibition, %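 (about 9 µM by stock and volumes)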. 290,000 tested, 0.75% active. P9WHJ3. AID 2221; in the data active = inhibition above about 30%; inconclusive = no clear call, values can overlap the other calls;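 note: 0% = vehicle wells and 100% = reference inhibitor control wells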
Target sequence (P9WHJ3 whole entry, looked up, canonical isoform): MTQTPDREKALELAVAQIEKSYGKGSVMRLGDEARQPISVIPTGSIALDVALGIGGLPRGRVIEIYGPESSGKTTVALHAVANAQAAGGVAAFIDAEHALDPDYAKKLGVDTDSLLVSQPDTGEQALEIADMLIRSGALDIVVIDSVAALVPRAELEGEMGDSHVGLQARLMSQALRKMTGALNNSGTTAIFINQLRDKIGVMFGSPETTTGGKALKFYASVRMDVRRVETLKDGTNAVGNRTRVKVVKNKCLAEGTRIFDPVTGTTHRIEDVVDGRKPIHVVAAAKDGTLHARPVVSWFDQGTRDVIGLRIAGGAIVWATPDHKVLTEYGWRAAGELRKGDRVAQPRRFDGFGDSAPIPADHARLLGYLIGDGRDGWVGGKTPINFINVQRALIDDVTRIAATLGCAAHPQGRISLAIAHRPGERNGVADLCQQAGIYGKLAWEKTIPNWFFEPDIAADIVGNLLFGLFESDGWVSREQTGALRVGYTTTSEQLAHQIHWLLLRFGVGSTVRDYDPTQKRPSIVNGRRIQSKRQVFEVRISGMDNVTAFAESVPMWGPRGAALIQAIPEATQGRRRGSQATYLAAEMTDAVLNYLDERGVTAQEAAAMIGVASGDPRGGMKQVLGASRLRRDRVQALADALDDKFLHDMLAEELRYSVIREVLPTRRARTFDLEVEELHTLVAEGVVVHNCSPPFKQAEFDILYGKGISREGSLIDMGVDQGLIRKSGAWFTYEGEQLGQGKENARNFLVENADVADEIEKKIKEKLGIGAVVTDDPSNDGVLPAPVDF
YopH inh: YopH (Yersinia) phosphatase inhibition; fluorescence Ex485/Em525; inhibition, %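 (about 10 µM by stock and volumes)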; 140,000 tested, 0.16% active; AID 898;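 active = inhibition of 50% or more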;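 note: controls were vehicle for no effect and minimum signal wells for full effect; inactives centre near -20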
Mtb betalactam: beta-lactam sensitization of Mtb H37Rv; AID 434955; 330,000 tested, 0.27% active; inhibition, % at 25 µM; M. tuberculosis H37Rv growth with meropenem, percent inhibition; hits of this screen are not shown here;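 active = about 74% or more and at least 40 points above the plate without the antibiotic, then above 30% in a dose series; inconclusive = first-round hits that could not be retested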;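 note: growth measured after seven days incubation then overnight dye step; 0% = bacteria only wells and 100% = bacteria with antibiotic; twin plates without the antibiotic show which effects depend on it; some results filed as inactive read as strong as hits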
Arbovirus anti repeat: further read-out of Arbovirus anti, marked with its call; inhibition, %; measured here: 10K subset replicate screen; many hits read low in the repeat;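 first of two repeat runs on a subset; 0% = infected and 100% = uninfected wells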
Starred values were filed as active, the others as inactive; ? = inconclusive; nt = not tested or not shown. These rows are one share of the data, so the mix of outcomes need not match the whole.

SMILES	Mtb growth	Arbovirus anti	RecA splice inh	YopH inh	Mtb betalactam	others
COc1ccccc1NC(=O)C1C2C=CC(C2)C1C(=O)NCc1cccnc1 (stereo not given)	nt	nt	-3.6	nt	-7
c1ccc2sc(Cc3nnc4n3CCCCC4)nc2c1	-4%	4	-1.1	-41	-5
COC(=O)c1cc(NC(=S)Nc2cc(Cl)cc(Cl)c2)cc(C(=O)OC)c1	0%	-1	nt	-24	94
Cc1[nH]c(-c2ccc(F)cc2)cc1C(=O)N1CCN(c2ccccc2F)CC1	nt	nt	7.9	nt	8
CCc1nnc2n1N=C(c1ccc(-c3cc(Cl)ccc3Cl)o1)CS2	-2%	-9	1.6	-15	55	Arbovirus anti repeat=-10
CCOC(=O)c1ccc(N2C=C(C(=O)OC)C(c3ccc(OC)c(O)c3)C(C(=O)OC)=C2)cc1	nt	nt	-17	nt	2
CCC(=O)N1c2ccccc2-c2nnc(SC)nc2OC1c1ccc(OC)c(OC)c1 (stereo not given)	-8%	1	1.3	-9	2	Arbovirus anti repeat=2
O=C(O)Cc1sc(NCCc2ccccc2)nc1-c1ccc(F)cc1	nt	nt	1.2	nt	-1
Nc1nc(NCCO)nc(NC2CCCCC2)c1[N+](=O)[O-]	nt	nt	0.7	nt	3
Oc1ccc(N=Nc2n[nH]c(-c3ccc(Cl)cc3)n2)cc1	75%	-15	9.9	-34	97
CCOC(=O)c1cn2nc(Oc3ccc(C)cc3)ccc2n1	8%	nt	1.5	nt	-13
Cc1ccc(-n2nc3ccc(NC(=O)C(C)C)cc3n2)cc1	6%	-12	7.6	nt	1
O=C(O)c1ccc(/C=N/Nc2nnnn2-c2ccccc2)cc1	6%	-1	-0.4	-10	10
CCc1ccc(NC(=O)CN(C)S(=O)(=O)c2ccc3[nH]c(=O)oc3c2)cc1	nt	nt	1.7	nt	-6
O=C(Nc1ccc(S(=O)(=O)N2CCCCC2)cc1)C1CCCN(C(=O)c2ccc(Cl)cc2)C1 (stereo not given)	46%	-4	1.0	-12	nt
Cn1c(CN2CCCC2)nc2cc(NC(=O)C3CCCCC3)ccc21	4%	8	3.1	-4	-8
O=C(CN1CCCCCCC1)N/N=C/c1ccc(F)cc1F	1%	-2	-2.2	-23	-3
C=CCn1c(C)cc(C(=O)Cn2c(C(C)O)nc3ccccc32)c1C (stereo not given)	4%	10	3.9	nt	-1
CCN(C(=O)CCS(=O)(=O)c1cccc2nsnc12)c1cccc(C)c1	nt	nt	7.3	nt	-7
NC(N)=N/N=C/c1ccc2cccc(OCc3ccccc3)c2n1	35%	nt	-4.7	nt	56
c1ccc(-n2c3ccccc3c3ccccc32)cc1	-16%	nt	15	nt	nt
CCC(C)(C(=O)Nc1c(C)cccc1C)N(C)C(=O)c1ccc2ccccc2n1 (stereo not given)	-6%	nt	0.0	nt	-8
CCCCNc1nc2ccccc2[nH]1	5%	6	9.7	-2	3
COCCN1C(=O)N[C@@H](c2ccc(Br)cc2)C(C(=O)OC)=C1C	nt	0	0.8	-5	-6
O=C(COc1ccc(F)cc1)Nc1cc(S(=O)(=O)N2CCCCC2)ccc1N1CCCCC1	nt	nt	6.4	nt	-3
CN(C)CCCNC(=O)c1ccc(Cl)c(S(=O)(=O)N(C)c2ccccc2)c1	0%	1	0.3	-13	-14
CCc1nn2cc(C(=O)c3cc(Cl)ccc3O)cnc2c1-c1ccc(F)cc1	6%	-36	-2.6	-25	4
COc1ccccc1N(CC(=O)N/N=C/c1c(O)ccc2ccccc12)S(C)(=O)=O	-2%	-18	12	-29	14
Cc1cccc(NC(=O)C2CC(=O)n3ncnc3N2)c1 (stereo not given)	-1%	nt	-2.3	nt	-2
O=C(NCCCN1CCCC1=O)C(=O)Nc1cccc(F)c1	nt	nt	0.2	nt	-11

Ordered by heavy-atom count (low to high): part of the list above.
SMILES	Mtb growth	Arbovirus anti	RecA splice inh	YopH inh	Mtb betalactam	others
COCCN1C(=O)N[C@@H](c2ccc(Br)cc2)C(C(=O)OC)=C1C	nt	0	0.8	-5	-6
NC(N)=N/N=C/c1ccc2cccc(OCc3ccccc3)c2n1	35%	nt	-4.7	nt	56
CCC(C)(C(=O)Nc1c(C)cccc1C)N(C)C(=O)c1ccc2ccccc2n1 (stereo not given)	-6%	nt	0.0	nt	-8

More entries follow:
SMILES	Mtb growth	Arbovirus anti	RecA splice inh	YopH inh	Mtb betalactam	others
CCCNS(=O)(=O)c1ccc(OCC(=O)NCc2ccc3c(c2)OCO3)cc1	2%	1	1.6	-22	3
COc1ccc(C(=O)N/C(=C\c2ccco2)C(=O)NCc2ccco2)cc1	nt	nt	-1.0	nt	4
Cc1ccc(S(=O)(=O)N(C)c2nc3ccccc3n3c(C(C)C)nnc23)cc1	nt	nt	-7.2	nt	-5
CCOc1ccc(C(=O)NCc2ccccn2)cc1	0%	4	-3.4	-38	-8
Fc1cccc(Cl)c1CSc1ncn[nH]1	1%	-3	-3.9	0	-18	Arbovirus anti repeat=11
O=[N+]([O-])c1ccc(-c2csc(N3CCCCCC3)n2)cc1	nt	nt	-2.2	nt	-3
COC(=O)CNC(=O)C(C)(C)Oc1ccc(Cl)cc1	-1%	-1	0.2	-19	15
COc1ccc(C2N(C(=O)N3CCOCC3)CCN2S(=O)(=O)c2ccc(C)cc2)cc1 (stereo not given)	-19%	-2	-1.6	0	-9
O=C(NCc1ccc2c(c1)OCO2)C1CC(=O)N(CCc2ccc(Cl)cc2)C1 (stereo not given)	nt	nt	-0.4	nt	-5
O=C(Cc1csc(NC(=O)c2ccc(F)cc2)n1)NO	6%	-22	-5.6	nt	73
COC(=O)c1cc2c(ccn2-c2ccc(F)cc2)n1CC(=O)N1CCN(C(=O)c2ccco2)CC1	7%	-8	nt	-20	1
CC(=O)N1CCN(c2ccc(NC(=O)/C=C/c3ccccc3)cc2)CC1	-6%	-6	-2.8	nt	3
O=C(CSc1nnnn1-c1ccccc1)NCc1cccs1	-1%	-2	2.3	-119	-6
O=C(CC(c1ccccc1)c1ccco1)Nc1nccs1 (stereo not given)	12%	5	4.5	-24	6
CC(C)C(=O)Nc1cccc(NC(=S)NC(=O)c2ccc(Cl)cc2)c1	5%	15	-1.5	-17	13

Grouped by structure, the entries above containing a furan ring, fused or not (4)
SMILES	Mtb growth	Arbovirus anti	RecA splice inh	YopH inh	Mtb betalactam	others
CCc1nnc2n1N=C(c1ccc(-c3cc(Cl)ccc3Cl)o1)CS2	-2%	-9	1.6	-15	55	Arbovirus anti repeat=-10
COc1ccc(C(=O)N/C(=C\c2ccco2)C(=O)NCc2ccco2)cc1	nt	nt	-1.0	nt	4
COC(=O)c1cc2c(ccn2-c2ccc(F)cc2)n1CC(=O)N1CCN(C(=O)c2ccco2)CC1	7%	-8	nt	-20	1
O=C(CC(c1ccccc1)c1ccco1)Nc1nccs1 (stereo not given)	12%	5	4.5	-24	6

Returning to the listing, repeating the 3 entries before the break.
SMILES	Mtb growth	Arbovirus anti	RecA splice inh	YopH inh	Mtb betalactam	others
O=C(CSc1nnnn1-c1ccccc1)NCc1cccs1	-1%	-2	2.3	-119	-6
O=C(CC(c1ccccc1)c1ccco1)Nc1nccs1 (stereo not given)	12%	5	4.5	-24	6
CC(C)C(=O)Nc1cccc(NC(=S)NC(=O)c2ccc(Cl)cc2)c1	5%	15	-1.5	-17	13
COc1ccc(CC(=O)N/N=C/C=C/c2ccc3c(c2)OCO3)cc1OC	-5%	nt	-3.8	nt	60
O=c1[nH]nc(Cc2ccc3ccccc3n2)c2ccccc12	-9%	-2	-1.8	-33	13
CCN(CC)CCn1c(N)c(S(=O)(=O)c2ccccc2)c2nc3ccccc3nc21	-4%	nt	0.5	nt	7
CCC1(C)Cc2c(sc3nnn(Cc4ccccc4Cl)c(=O)c23)CO1 (stereo not given)	6%	8	nt	-11	2
OC(CNCCc1ccc(Cl)cc1)COc1ccc2ccccc2c1 (stereo not given)	?	-31	nt	nt	nt
COc1ccc(C(=O)N/C(=C\c2ccccc2)C(=O)Nc2cccc(C(=O)O)c2)cc1	nt	nt	-1.0	nt	-1
CCCCOc1ccc(C2C(C(=O)c3cccs3)=C(O)C(=O)N2CCN2CCOCC2)cc1 (stereo not given)	nt	nt	-0.2	nt	-1
CCOc1ccccc1/C=N/Nc1nc(C)cc(=O)[nH]1	nt	nt	-4.1	nt	-2
Cc1cccc2cc(COC(=O)C3CCCO3)c(=O)[nH]c12 (stereo not given)	2%	3	-2.4	-40	-6
COC(=O)c1c(NC(=O)c2ccc(C)cc2)sc(Cc2ccccc2)c1C	-4%	2	-2.3	-34	-16
CC(C)[C@H]1COCCS(=O)(=O)N1Cc1ccc(Cl)cc1	nt	nt	0.7	nt	-3
C=CCn1c(O)c(C(CC)=NC2CC2)c(=O)[nH]c1=O	-5%	-2	-3.6	-20	3
COCCCn1c(=S)[nH]c2ncccc2c1=O	-2%	4	6.4	-24	-2
O=C(C1CCC(N2C(=O)C3CC=CCC3C2=O)CC1)N1CCCCC1 (stereo not given)	1%	3	nt	-27	-1
CCOC(=O)C1=C(C)NC(=O)NC1c1ccc(OCC(=O)N2CCCCC2)cc1 (stereo not given)	-1%	1	-2.0	-14	0
CCO/N=C/C1=C(O)C(C(=O)OC)C(C)(C)CC1=O (stereo not given)	7%	5	2.1	nt	10
COc1ccc(CCNC(=O)C(=O)NCC2CCNCC2)cc1OC	-8%	nt	nt	nt	-6
Cc1ccc(CN2CCS(=O)(=O)CC2)o1	-7%	10	0.3	nt	3
O=S(=O)(c1ccc(Br)cc1)N1CCN(Cc2ccco2)CC1	nt	nt	2.4	nt	-8
Cc1cccc(CN2CCN(Cc3nc4c(s3)CCCC4)CC2CCO)n1 (stereo not given)	7%	-1	2.3	nt	-3
COc1ccc(CCC(C)NC(=O)Cc2ccc(OC)c(OC)c2)c(OC)c1 (stereo not given)	nt	nt	-0.1	nt	6
NC(=O)CC(NC(=O)c1ccc(Br)cc1)c1ccc(N2CCC(Cc3ccccc3)CC2)c([N+](=O)[O-])c1 (stereo not given)	nt	nt	1.2	nt	52
COc1cccc(CNC(=O)COc2ccc(C(=O)c3ccccc3)cc2)c1	nt	nt	2.8	nt	-1
O=C(O)C1CCN(c2ccccc2[N+](=O)[O-])CC1	8%	12	2.2	nt	2
NN1C(=O)c2cccc3c(C(=O)O)ccc(c23)C1=O	-6%	-2	0.6	-18	1
Cc1ccc2c(C)c(C(=O)Nc3c(C)n(C)n(-c4ccccc4)c3=O)oc2c1	1%	13	0.2	-31	8
CCn1cc(C(=O)O)c(=O)c2cc(F)c(N3CCN(C(=S)NC(=O)c4ccc(Br)cc4)CC3)cc21	63%	-4	1.0	nt	?
CC(=O)N1CCc2cc(S(=O)(=O)NC(Cc3ccccc3)C(=O)Nc3cc(C)ccn3)ccc21 (stereo not given)	4%	0	3.5	-6	16
CCNC(=O)C(=O)Nc1ccc2c(c1)N(S(=O)(=O)c1cccs1)CCC2	nt	nt	-0.5	nt	-2
CCCc1cc(-c2[nH]ncc2-c2ccc3c(c2)OCCCO3)c(O)cc1OC	1%	-46	nt	-17	nt
CC(OC(=O)C1CCCO1)C(=O)NC1CCCC1 (stereo not given)	-4%	3	0.4	-31	-17
